RanGTP-Imp inh = disruptors of Ran-importin-beta complex formation – biochemical, FRET, CFP-Ran, YFP-importin-beta, homogeneous, primary screen; inhibition, % (concentration not given with the values); 300,000 tested, 1.1% active; cell-free CFP-Ran/YFP-importin-beta FRET ratio;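 active means most replicates above 15%; inconclusive means exactly half above 15%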;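 further: 0% = DMSO wells and 100% = Ran loaded with GDP instead of GTP; wells of about 40 µL received 100 nL stock; the first replicate is given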
FGF22 binding = shifts melting point of recombinant human FGF22; calls only at 9.99 µM; AID 651658; 340,000 tested, 1.5% active; recombinant FGF22 thermal shift, SYPRO orange fluorescence; percent of sucrose octasulfate shift, DMSO zero;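 active means melting point raised past a set limit in the mean and every replicate; inconclusive means no clear call; three in four hits are not shown here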
Target sequence (Q9HCT0 whole entry, looked up): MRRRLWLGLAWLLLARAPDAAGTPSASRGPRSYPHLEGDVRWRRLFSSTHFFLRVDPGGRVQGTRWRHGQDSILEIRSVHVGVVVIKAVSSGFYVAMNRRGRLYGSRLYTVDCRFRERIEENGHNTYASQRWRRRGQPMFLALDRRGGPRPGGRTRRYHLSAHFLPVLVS
ALR inh = inhibitors of human sulfhydryl oxidase ALR. AID 485317. 290,000 tested, 3.8% active. P55789. purified ALR, DTT oxidation, H2O2 HRP-luminol luminescence. inhibition, % (no concentration beside the values);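 active means mean and each replicate at 75% or more; inconclusive means only one of the two met; inactive means neither met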;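 further: stock transfer was 7.5 nL into about 7.5 µL; 0% = neutral wells and 100% = wells with inactivated enzyme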
Target sequence (P55789 whole entry, looked up): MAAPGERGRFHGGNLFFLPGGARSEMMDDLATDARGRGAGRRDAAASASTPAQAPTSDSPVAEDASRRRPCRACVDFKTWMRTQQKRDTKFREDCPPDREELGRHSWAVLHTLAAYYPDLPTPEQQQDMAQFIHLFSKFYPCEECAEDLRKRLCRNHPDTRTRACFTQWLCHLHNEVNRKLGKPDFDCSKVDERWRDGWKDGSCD
Ecoli rRNA inh = inhibits bacterial ribosomal RNA function over humanized ribosomes; GFP signal change (wild-type ribosome), % (no concentration beside the values); 350,000 tested, 1.6% active; AID 720706; E. coli WT GFP vs humanized-ribosome RFP mutants, fluorescence, 24 h; stronger effect = lower value; DMSO median 0, no signal -100;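 active means significant combined selectivity score with lowered wild-type GFP, culture density cut under 30%, mutant RFP and density less affected; inactive means any of these conditions unmet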; further: one replicate is shown; some compounds called inactive have numbers as strong as hits
AF4-AF9 inh = blocks AF4 peptide binding to human AF9 | P42568 | AlphaScreen, biotin-AF4 peptide binding to FLAG-AF9 | inhibition, % at 10 µM | 350,000 tested, 0.47% active | AID 651704;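 active means every replicate reaching a set inhibition limit, whatever the replicate mean, cut at about 25% in these data; inconclusive means mean inhibition reaches that limit but some replicates miss it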;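 further: 0% = plate neutral control median and 100% = total signal loss; the record names both 10 and 1 µM as test concentration; the first replicate is given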
Target sequence (P42568 whole entry, looked up): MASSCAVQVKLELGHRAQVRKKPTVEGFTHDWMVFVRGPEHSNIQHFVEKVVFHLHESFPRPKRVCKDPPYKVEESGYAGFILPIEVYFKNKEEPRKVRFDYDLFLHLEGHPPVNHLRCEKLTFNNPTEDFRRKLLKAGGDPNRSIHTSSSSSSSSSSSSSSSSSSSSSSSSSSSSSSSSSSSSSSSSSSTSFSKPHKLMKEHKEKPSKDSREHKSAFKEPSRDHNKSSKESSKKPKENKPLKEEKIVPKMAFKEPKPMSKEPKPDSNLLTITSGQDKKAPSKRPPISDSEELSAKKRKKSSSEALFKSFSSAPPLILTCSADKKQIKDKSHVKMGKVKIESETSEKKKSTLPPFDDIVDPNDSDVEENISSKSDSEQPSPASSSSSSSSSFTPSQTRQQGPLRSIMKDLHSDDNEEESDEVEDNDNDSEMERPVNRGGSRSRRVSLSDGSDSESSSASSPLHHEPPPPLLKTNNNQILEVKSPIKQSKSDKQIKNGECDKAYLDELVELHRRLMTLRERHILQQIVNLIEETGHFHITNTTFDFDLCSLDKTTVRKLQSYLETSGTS
Beta apoptosis = blocks beta cell apoptosis; AID 435005; protection from apoptosis, % (no concentration beside the values); INS-1E cytokine-induced death, ATP luminescence, 48 h; percent of positive-control rescue, neutral wells zero; 300,000 tested, 0.8% active;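 active means all replicates at 75% or more, or half of them and the mean; inconclusive means half reach 75% but not the mean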;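 further: 0% = cytokine-treated negative control wells and 100% = positive control rescue; higher means more ATP so stronger rescue from cytokine killing; wells of about 40 µL received 100 nL stock; the first replicate is given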
Calb FLC = C. albicans growth modulation with fluconazole. C. albicans CaCi-2 (fluconazole-resistant clinical isolate) + fluconazole, Alamar Blue growth, 48 h. growth inhibition, % (test concentration not listed). 300,000 tested, 0.57% active. AID 1979;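 active means most replicates above 75%; inconclusive means exactly half above 75%; inactive means most below 75%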;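 further: all wells also contain fluconazole at 8 µg/ml as a sub-toxic cotreatment; 0% = median of DMSO wells and 100% = median of geldanamycin control wells; wells of about 8 µL received 7.5 nL stock; the first replicate is given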
T cruzi repl = blocks replication of Trypanosoma cruzi | T. cruzi beta-gal in NIH3T3, luminescence, 90 h | inhibition, % (no concentration beside the values) | 300,000 tested, 1.4% active;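 active means mean inhibition across valid replicates above about 55%, limit read from the data; inconclusive means mean below that limit but half or more replicates reach it; inactive means mean below it, under half of replicates reach it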;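 further: signal also drops with host cell toxicity which is not excluded here; 0% = plate median of DMSO wells and 100% = zero luminescence signal; higher percent means less beta-gal luminescence so fewer parasites; stock transfer was 50 nL into about 50 µL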
Ecoli rRNA inh OD600 = also measured in Ecoli rRNA inh; calls as there; OD600 change, %; measured here: OD600 growth;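 optical density of the mix in the first replicate; 0 = DMSO median and -100 = no signal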
Ecoli rRNA inh RFP = further read-out of Ecoli rRNA inh, marked with its call; RFP signal change, %; measured here: RFP humanized mutant strains;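 first replicate; 0 = DMSO median and -100 = no signal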
Active calls of the source: *; i = inactive; ? = inconclusive; / = not tested or not shown. Not all compounds are listed; count on the stated rates, not on these rows.

Second line of a record – RanGTP-Imp inh, FGF22 binding, ALR inh, Ecoli rRNA inh, Ecoli rRNA inh OD600, Ecoli rRNA inh RFP, AF4-AF9 inh, Beta apoptosis, Calb FLC, T cruzi repl
> COc1cc2c(cc1OC)-c1nncn1C(C)(C)C2
→ -0.7, /, 0, /, /, /, /, 4, -4, -3
> Cc1noc(C)c1CSCC(=O)Nc1nnc(CC(C)C)s1
→ -4.5, i, 20, 11, 6, 12, 0.2, 4, 0, 1
> Cc1ccc(N(C(=O)Cn2nnc(-c3ccc(F)cc3)n2)C(C(=O)NC(C)(C)C)c2ccncc2)cc1 (centres undefined)
→ -1.2, /, /, 14, 12, 5.0, -0.1, -6, -12, 11
> COc1ccc(/C(N)=N/OC(=O)CCCc2ccccc2)cc1OC
→ -0.3, /, -23, /, /, /, /, 0, -6, 8
> COc1ccc(NC(=O)[C@@H](NC(=O)c2ccccc2F)C(C)C)cc1S(=O)(=O)N1CCOCC1
→ 1.2, i, -6, -17, -23, 1.9, 1.6, -2, ?, 28
> Cc1ccc(C(=O)NC2CC3CCCC(C2)N3Cc2ccccc2)cc1 (centres undefined)
→ 5.9, i, /, 13, 9, 4.2, -5.7, 1, -11, -10
> CCC(=O)c1ccc(O)c(OC)c1
→ 2.7, i, -26, 9, 9, 7.0, -1.2, -10, 1, 9
> Cc1cccc(OCC(=O)NCC(=O)n2nc(C)cc2C)c1
→ -0.7, /, -2, /, /, /, /, -6, -5, -5
> O=C(Cc1cccc2ccccc12)Nc1ccc(N2CCOCC2)cc1
→ 1.5, /, -13, 5, 7, -2.5, 1.2, 5, 32, -1
> COc1ccccc1NC(=S)N1CCC(NC(=O)NC23CC4CC(CC(C4)C2)C3)CC1
→ 3.6, i, -6, -15, -14, -2.8, 6.0, 6, -1, 1
> COc1ccc(NC2CCCN(C(=O)CCc3cccc(Cl)c3)C2)cc1 (centres undefined)
→ 1.5, i, /, -5, -26, -0.9, 8.2, 7, -7, 12
> O=C(Nc1cccc(F)c1)c1ccc(S(=O)(=O)N2CCOCC2)cc1
→ 1.1, i, 1, -5, -5, -1.8, -8.9, -2, -5, -11
> CC(C)(C)c1cc(C(=O)NCc2cccnc2)ccn1
→ 5.7, /, -4, /, /, /, /, -4, -2, 10
> C/C(CCC12CC3CC(CC(C3)C1)C2)=N\NC(N)=S
→ 1.5, /, 16, /, /, /, /, 14, 2, 35
> Cc1ccc(C(=O)N/C(=C\c2cccs2)C(=O)NCCc2c[nH]c3ccccc23)cc1C
→ 1.2, /, -5, /, /, /, /, 9, 22, 31
> Cc1ccc(NC(=O)c2cc(=O)[nH]c3ccccc23)cc1
→ -1.5, i, -2, 7, 9, 10, -3.1, -4, -3, -2
> O=C(COc1ccc(S(=O)(=O)N2CCCC2)cc1)NCC1CCCO1 (centres undefined)
→ 1.0, /, -8, 8, 9, 1.6, -3.1, -4, 0, -10
> CCCCCCSc1cc(C)nc2ncnn12
→ -1.0, i, -26, -1, 8, -3.8, 4.7, 9, -1, 0
> CC(=O)c1cc2c(cc1N/C(=N/S(=O)(=O)c1ccccc1)c1ccc(Cl)cc1)OCO2
→ -1.2, /, -11, /, /, /, /, 1, ?, 17
> CC1CC(C)CN(C(=O)c2ccc3ccccc3c2)C1 (centres undefined)
→ 6.3, i, 2, -8, -8, 5.5, 7.8, 6, -10, 0
> CCOC(=O)c1cccc(C(=O)Oc2ccccc2)n1
→ -3.6, /, 9, 26, 10, 0.5, /, -2, 6, -6
> Cc1ccc(NC(=O)Nc2ccnc(-c3cccnc3)n2)cc1
→ -0.3, i, 2, 33, 18, 0.9, -0.2, -19, -9, -3
> CCc1cc(-c2n[nH]c(C)c2-c2nc3ccccc3n2C)c(O)cc1O
→ 1.2, i, 1, -10, -28, -0.6, 1.8, -2, -3, -29
> Cc1ccc(S(=O)(=O)N2CCOCC2)cc1C(=O)NNC(=O)c1ccoc1C
→ 2.0, i, 0, 6, 9, 4.5, 0.2, -8, -13, -5
> Cc1ccc([N+](=O)[O-])c(OCCCNCC(C)O)c1 (centres undefined)
→ -3.4, i, -64, 1, 9, 0.9, 0.1, -1, -2, 7
> CCc1cc(C(=O)NC2CCCN(Cc3ccccc3F)C2)n(C)n1 (centres undefined)
→ 0.5, i, -20, 1, 3, -3.9, -1.0, /, 3, -13
> CCCCn1c(N)c(N(Cc2ccccc2OC)C(=O)c2cc(=O)[nH]c3ccccc23)c(=O)[nH]c1=O
→ 5.0, i, -68, -1, -5, -1.7, -23, -1, 0, -14
> COc1cccc(OCCOCCOc2ccc(C)cc2[N+](=O)[O-])c1
→ 0.6, i, -18, -20, -22, 3.3, 2.4, 1, 7, 0
> CN(C(=O)c1cccs1)c1ccc(OCC(=O)N2CCC(C(N)=O)CC2)cc1
→ 0.0, i, -13, 9, 1, 15, -1.9, -3, -3, -12
> CN(C)CCN(C(=O)c1cccc(Cl)c1)c1nc2c(Cl)cccc2s1
→ 4.6, /, /, /, /, /, /, -1, -2, 39
> COC(=O)C(O)(CC(=O)Nc1ccccc1OC)C(F)(F)F (centres undefined)
→ -0.1, /, -4, /, /, /, /, -10, 4, -10
> CC1CCCCN1C(=S)NC(=O)c1cc(Br)ccc1Cl (centres undefined)
→ /, i, 8, -49, -76, -19, 1.2, 5, /, /
> COc1ccccc1OCc1ccc(C(=O)NCC2CCCO2)cc1 (centres undefined)
→ /, i, 0, -1, -1, -1.8, 1.9, 4, /, /
> Cn1c(=O)cc(SCC(=O)N2CCN(C3CCCCC3)CC2)c2ccccc21
→ 3.3, i, 0, 0, -5, -11, -6.0, -10, -4, 15
> COC(=O)c1cc(=O)[nH]c(SCc2cccc(C)c2)n1
→ -2.6, i, 63, 3, 5, -1.4, -0.2, /, 0, -1
> Cc1nonc1C1CCCN1C(=O)c1cc(COc2cccc(C(F)(F)F)c2)on1 (centres undefined)
→ 0.7, i, -3, -3, 5, -2.2, -16, 6, 1, 26
> N#CC1=C(N)N2C(=C(C#N)C1c1ccccc1)Sc1ccccc12 (centres undefined)
→ ?, /, -3, /, /, /, /, -3, 12, -6
> O=C(N/C(=C\c1ccc(Br)cc1)c1nc2ccccc2[nH]1)c1ccco1
→ -0.5, /, -10, /, /, /, /, -4, 3, 2
> O=C(C(Cc1ccccc1)n1cccc1)N1CCc2ccccc21 (centres undefined)
→ 1.3, i, -1, -3, -20, -4.2, -3.3, 4, 1, 16
> COc1ccc(NC(=O)CSc2ncn[nH]2)c([N+](=O)[O-])c1
→ ?, /, -9, /, /, /, /, 2, 29, -8
> O=C(COC(=O)c1ccc[nH]c1=O)Nc1cc(S(=O)(=O)N2CCCCC2)ccc1Cl
→ -0.1, i, -17, 1, 3, 4.3, 0.3, -5, -7, 4
> NC(=O)c1c(NC(=O)c2c(F)cccc2F)sc2c1CCN(Cc1ccccc1)C2
→ 163*, i, 6, -10, -20, 0.0, -2.9, 2, -7, 3
> COCCNC(=O)c1ccc2c(c1)S(=O)(=O)c1cc(Cl)ccc1C2=O
→ /, i, 1, 11, -1, -0.1, 4.2, -3, /, /
> COc1ccccc1CN1C[C@@H]2C[C@@H](c3cccc(O)c3)N3CCC[C@@]23C1=O
→ -1.9, i, 19, 7, 0, 3.5, 1.4, -9, -21, -11
> Cc1nc(C(=O)NNC(=O)Nc2ccccc2)cs1
→ -0.9, i, /, 19, 10, 0.4, /, -15, 1, -15
> CC(=O)Nc1cc(NC(C)=O)cc(C(=O)NC(C)(C)C)c1
→ -1.9, /, -2, /, /, /, /, 4, 24, -15
> NC1=NC(=Nc2cccc(Cl)c2)c2ccccc21
→ 0.1, /, 32, /, /, /, /, -6, 0, -9
> COc1ccc(-n2nc3c(c2NC(=O)C(C)Cl)CSC3)cc1 (centres undefined)
→ -0.9, i, 2, 0, 14, 0.8, 2.3, 2, 21, 1
> CC1(C)CC(=O)C=C(Nc2ccc([N+](=O)[O-])cc2)C1
→ 2.9, i, -6, -1, 14, -5.9, 1.8, -5, 78*, -6
> CCN1CCN(C(=O)CN(C)S(=O)(=O)c2ccc(Cl)cc2)CC1
→ 8.8, /, 0, /, /, /, /, 0, -12, /
> Cc1ccc(CNc2ccc3c(c2)OCO3)cc1
→ 9.4, /, -15, /, /, /, /, -4, -29, 82*
> COC(=O)[C@]1(C)N[C@H](CN(C)C(=O)Nc2ccc(C)cc2)[C@@H]2C(=O)N(Cc3ccccc3)C(=O)[C@@H]21
→ /, /, /, -7, -2, -1.1, -2.6, -9, /, /

Compounds from the list above that have an NH in an aromatic ring (eight):
Second line of a record – RanGTP-Imp inh, FGF22 binding, ALR inh, Ecoli rRNA inh, Ecoli rRNA inh OD600, Ecoli rRNA inh RFP, AF4-AF9 inh, Beta apoptosis, Calb FLC, T cruzi repl
> Cc1ccc(C(=O)N/C(=C\c2cccs2)C(=O)NCCc2c[nH]c3ccccc23)cc1C
→ 1.2, /, -5, /, /, /, /, 9, 22, 31
> Cc1ccc(NC(=O)c2cc(=O)[nH]c3ccccc23)cc1
→ -1.5, i, -2, 7, 9, 10, -3.1, -4, -3, -2
> CCc1cc(-c2n[nH]c(C)c2-c2nc3ccccc3n2C)c(O)cc1O
→ 1.2, i, 1, -10, -28, -0.6, 1.8, -2, -3, -29
> CCCCn1c(N)c(N(Cc2ccccc2OC)C(=O)c2cc(=O)[nH]c3ccccc23)c(=O)[nH]c1=O
→ 5.0, i, -68, -1, -5, -1.7, -23, -1, 0, -14
> COC(=O)c1cc(=O)[nH]c(SCc2cccc(C)c2)n1
→ -2.6, i, 63, 3, 5, -1.4, -0.2, /, 0, -1
> O=C(N/C(=C\c1ccc(Br)cc1)c1nc2ccccc2[nH]1)c1ccco1
→ -0.5, /, -10, /, /, /, /, -4, 3, 2
> COc1ccc(NC(=O)CSc2ncn[nH]2)c([N+](=O)[O-])c1
→ ?, /, -9, /, /, /, /, 2, 29, -8
> O=C(COC(=O)c1ccc[nH]c1=O)Nc1cc(S(=O)(=O)N2CCCCC2)ccc1Cl
→ -0.1, i, -17, 1, 3, 4.3, 0.3, -5, -7, 4

Screens from PubChem BioAssay.
